Compound activity from PubChem BioAssay.
D2 agonist: Beta-Arrestin HTS for Positive Allosteric Modulators of the Human D2 Dopamine Receptor: Agonists; D(2) dopamine receptor (Homo sapiens), P14416; DiscoveRx PathHunter D2 beta-arrestin, luminescence, 90 min; 100% = 57 uM dopamine signal; activation, % (concentration not given with the values); 360,000 tested, 0.084% active; AID 624465, 2012; in the data active = activation above about 40%; inconclusive = about 15% to 40%; inactive = below about 15%; further: compound concentration not given in the record; the text of the record calls up to 30% inactive
Target sequence (P14416 whole entry, looked up): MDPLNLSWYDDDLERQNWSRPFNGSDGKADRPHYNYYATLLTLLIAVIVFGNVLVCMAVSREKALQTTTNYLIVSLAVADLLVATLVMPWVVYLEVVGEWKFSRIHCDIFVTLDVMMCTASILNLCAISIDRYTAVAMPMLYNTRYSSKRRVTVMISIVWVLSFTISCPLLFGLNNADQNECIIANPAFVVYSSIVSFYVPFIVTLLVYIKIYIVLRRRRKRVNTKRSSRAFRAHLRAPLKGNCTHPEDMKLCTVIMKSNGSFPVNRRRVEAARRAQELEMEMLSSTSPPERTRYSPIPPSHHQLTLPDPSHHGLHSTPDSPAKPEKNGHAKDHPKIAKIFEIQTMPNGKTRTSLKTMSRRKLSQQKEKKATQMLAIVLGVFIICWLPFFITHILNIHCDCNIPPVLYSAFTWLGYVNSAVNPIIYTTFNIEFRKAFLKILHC
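DiscoveRx PathHunter D2 beta-arrestin cells (2,100/well) attached overnight, then compound-stimulated 90 min at 37 C in HBSS/10 mM HEPES/0.1% Tween-20 buffer; beta-galactosidase complementation read by luminescence after 1 h at ambient temperature. Dopamine 57 uM final (EC100) as control.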
gsp agonist: qHTS for Agonist of gsp, the Etiologic Mutation Responsible for Fibrous Dysplasia/McCune-Albright Syndrome: qHTS; gsp mutant cells, cAMP HTRF, 30 min; control for the full effect not named in the record; Potency, µM (series often up to 76.9 µM), for inactives: top-dose activation (cAMP increase), hits mostly activators; 340,000 tested, 0.13% active; AID 624287, 2012; active = well fitted activation curve with a large enough effect; inconclusive = small, poorly fitted or top-dose-only effect, or another doubt; inactive = no such curve, though single readings can be large or run the other way; cell line not stated here;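 further: phosphodiesterase inhibitor Ro 20-1724 added with compounds to block cAMP breakdown; potency means the concentration at half of the fitted maximal effect; nearly all actives have a fitted effect of over 60% in size; about a fifth of the inactives were tested at one dose only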
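Cells stably selected in G418 were plated at 2000/well, grown 16-24 hr, then given compounds in DMSO with the PDE inhibitor […] (300 uM solution added) for 30 min at 37C; cAMP was read by HTRF.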
Menin MLL FP FL: qHTS Assay for Inhibitors Targeting the Menin-MLL Interaction in MLL Related Leukemias: Competition With Fluorescein Labeled MLL-derived Peptide. Fluorescence polarization, fluorescein-MLL peptide displacement from menin. FP activity change, % at 61.4 µM. 290,000 tested, under 10 active; inconclusive = falling polarisation curve, or a change in total fluorescence; inactive = total fluorescence flat and polarisation flat or rising; no compound was filed as active; the % refers to the polarisation; negative = inhibition;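 further: % of control where 0% means no effect; inhibitors lower the polarisation; unlabelled MLL peptide was the positive control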
ClpP mod: qHTS Assay for Activators of ClpP; Potency, µM (doses to about 57.5 µM), without a hit: at the highest dose activity change, negative = active; 340,000 tested, 1.9% active; purified B. subtilis ClpP, FRET peptide cleavage, 20 min; ATP-dependent Clp protease proteolytic subunit (Bacillus subtilis (strain 168)), P80244; AID 651965, 2013; active = well fitted falling curve with a large enough effect; inconclusive = small, poorly fitted or top-dose-only effect; inactive = no such curve, though single readings can be large or run the other way; further: potency means the concentration at half of the fitted maximal effect; the source files actives as falling curves though it sought activators and does not explain the sign; nearly all actives have a fitted effect of over 65% in size; many hits overshoot -100%
Target sequence (P80244 whole entry, looked up): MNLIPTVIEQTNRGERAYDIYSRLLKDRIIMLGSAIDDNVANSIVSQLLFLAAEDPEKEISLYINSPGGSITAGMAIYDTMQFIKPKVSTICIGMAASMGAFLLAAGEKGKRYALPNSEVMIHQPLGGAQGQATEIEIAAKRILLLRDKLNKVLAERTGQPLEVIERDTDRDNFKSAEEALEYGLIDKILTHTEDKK
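Buffer: 100 mM Tris/HCl pH8, 100 mM KCl, 0.05% low protease BSA, 2.5% glycerol, 0.01% Tween-20. ClpP 10 microg/mL final; 20 min RT; delta FRET normalized to ADEP and DMSO controls.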
Sfp PPTase inh: qHTS Assay for Inhibitors of Bacillus subtilis Sfp phosphopantetheinyl transferase (PPTase); Biochemical Sfp PPTase activity, qHTS; Potency, µM, without a hit: max response, negative = inhibition, most hits filed as inhibitors; 310,000 tested, 3.5% active; AID 1490, 2009; active means well fitted inhibition curve with a large enough effect; inconclusive means small, poorly fitted or top-dose-only effect, or another doubt; inactive means no such curve, though single readings can be large or run the other way;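 further: the enzyme is Sfp with the accession as filed and its product quenches rhodamine fluorescence; potency means the concentration at half of the fitted maximal effect; 0% = enzyme reaction without inhibitor and -100% = no enzyme wells; top concentration of the series not given in the record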
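Buffer: 50 mM Hepes-Na pH 7.6, 10 mM MgCl2, 0.01% Nonidet P-40, 0.01% BSA. Enzyme 15 nM, pre-exposed to compound 15 min; substrates then added and fluorescence change tracked over 30 min.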
PINK1 expr mod: A Quantitative High throughput Screen to Identify Chemical Modulators of PINK1 Expression; Potency, µM (doses to about 76.6 µM), inactives show at the highest dose activation (PINK1 increase), hits mostly activators; AID 624263, 2012; PINK1 immunofluorescence, high-content cytometry, 24 h; 410,000 tested, 0.2% active; active = well fitted activation curve with a large enough effect; inconclusive = small, poorly fitted or top-dose-only effect; inactive = flat fitted curve, though single readings scatter; cell line not stated here;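 further: potency means the concentration at half of the fitted maximal effect; % of control where 0% means no effect; nearly all actives have a fitted effect of over 65% in size; a mitochondrial uncoupler was the plate control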
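Measures PINK1 amount and localization on or inside mitochondria by immunofluorescence. Stable cells get compounds at 5 concentrations for 24 hours before fixation and staining; CCCP controls included.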
gsp antagonist: qHTS for Antagonists of gsp, the Etiologic Mutation Responsible for Fibrous Dysplasia/McCune-Albright Syndrome: qHTS; gsp-mutant cells, cAMP HTRF, 30 min; control for the full effect not named in the record; Potency, µM (doses to about 76.9 µM), inactives show top-dose activity change, negative = inhibition, most hits filed as inhibitors; AID 624288, 2012; 340,000 tested, 0.4% active; active = falling curve of any shape with a large fitted effect; inconclusive = falling curve, mostly with a smaller effect; inactive = flat or rising curve; cell line not stated here;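 further: intracellular cAMP measured with PDE inhibitor Ro 20-1724 present during compound exposure; potency means the concentration at half of the fitted maximal effect; on the % scale 0 is the no-effect control and ±100 the full control effect; nearly all actives have a fitted effect of over 65% in size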
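HTRF cAMP measurement after 30 min RT detection following 30 min, 37C compound treatment alongside […] (added as 300 uM solution) in G418-selected cells seeded at 2000/well and grown 16–24 h.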
Active calls of the source: *; ? = inconclusive; / = not tested or not shown; & = joins results of further samples; [ ] = remark or other dose. Not a hit list; any-hit rate near 5.1%.

SMILES | D2 agonist | gsp agonist | Menin MLL FP FL | ClpP mod | Sfp PPTase inh | PINK1 expr mod | gsp antagonist
CCc1nc(-c2ccc(-c3ccc(OC)cc3)nc2OC)no1 | -1.3 | -13% | -0.6 | 54% | -1% | -1.0% | -21%
COc1ccc(C(C)=O)cc1COc1ccc(Cl)cc1Cl | -0.3 | -13%[15.4 µM] | -0.7 | / | 10% | 1.9% | -3%
Cc1cc(C)cc(OCC(=O)N(Cc2ccccc2)C2CCS(=O)(=O)C2)c1 (stereo not drawn) | 0.0 | 17%[15.4 µM] | -6.1 | -0.4% | 8% | 1.5% | -27%
COc1ccc(-c2ccc(SCC(=O)NC3CCCC3)nn2)cc1OC | -2.3 | -24%[15.4 µM] | / | -29% | 10% | -1.0% | -1%
Cc1cccc(CC2CC(=O)N(c3ccc([N+](=O)[O-])cc3)C2=O)c1 (stereo not drawn) | -1.9 | 25% | 0.2 | -0.6% | 9% | 1.6% | 0%
CCc1cc(C(=O)NCC(c2ccco2)N2CCCCC2)sc1C (stereo not drawn) | -4.4 | ? | / | 0.9% | / | 1.7% | -1%
CCCCn1c(N)c(N(CCOC)C(=O)c2cccc(S(=O)(=O)N(C)c3ccc(C)cc3)c2)c(=O)[nH]c1=O | 0.4 | -1%[15.4 µM] | / | -2.5% | / | -1.2% | 7%
CC(C)CC(NC(N)=O)C(=O)OCC(=O)Nc1ccc(SC(F)F)cc1 (stereo not drawn) | 5.6 | 0%[15.4 µM] | 5.3 | -0.4% | 1% | 2.2% | 4%
C=CCn1c(SCC(=O)Nc2ccc(Br)cc2)nc(O)c(CC)c1=O | 1.9 | -51%[inhibitor] | 0.1 | -1.7% | 4% | 1.4% | 1%
CCN(CC)C(=O)C(=O)c1ccn(-c2c(C)csc2C(=O)OC)c1 | -4.6 | -5% | 1.4 | -0.8% | 9% | 1.3% | 5%
CC1CCCN(C2(O)C(=O)Nc3ccc(Cl)cc32)C1 (stereo not drawn) | -0.3 | ? | -2.2 | 0.0% | 7% | -0.5% | 4%
Cc1ccccc1-c1nnc(-c2ccc(Cl)cc2)o1 | -2.2 | -17% | 3.7 | -24% | -6% | -3.8%[38.3 µM] | 1%
CC1(c2ccccc2)NC(=O)N(CC(=O)N(CC(=O)Nc2ccccc2C(F)(F)F)Cc2ccco2)C1=O (stereo not drawn) | -1.7 | 3% | / | -2.2% | / | 3.6% | -10%
O=C(NCc1ccccc1)c1csc2c1CCCCC2 | -3.1 | 0% | 0.5 | -0.1% | 22% | 1.4% | 1%
CS(=O)(=O)c1ccc(Cl)c(NC(=O)COC(=O)CCN=C2NS(=O)(=O)c3ccccc32)c1 | -3.2 | -1% | / | 0.2% | / | 0.7% | 17%
CCOC(=O)N1CCN(C(=O)c2ccc(N3C(=O)c4ccccc4C3=O)cc2)CC1 | 0.9 | -28% | 0.3 | -6.0% | 5% | -2.9% | -10%
O=C(Nc1cc(S(=O)(=O)N2CCOCC2)ccc1N1CCOCC1)c1c(F)cccc1Cl | 0.1 | 3% | / | -2.4% | / | 2.0% | 1%
CC(OC(=O)c1ccc(Cl)nc1)C(=O)NC(C)(C)C (stereo not drawn) | 1.6 | 14%[15.4 µM] | 0.2 | / | 14% | 0.0% | 13%
OCC1CCCN(c2ncnc3scc(-c4ccccc4)c23)C1 (stereo not drawn) | -2.3 | -33%[inhibitor] | -0.3 | -0.4% | -6% | 0.7% | 5%
CCc1nc2ccc(C(=O)NCCc3c[nH]c4ccccc34)cn2c1N(C)CCCc1ccccc1 | 2.5 | / | / | -9.8% | / | -0.6% | /

A portion from the list above:
SMILES | D2 agonist | gsp agonist | Menin MLL FP FL | ClpP mod | Sfp PPTase inh | PINK1 expr mod | gsp antagonist
Cc1ccccc1-c1nnc(-c2ccc(Cl)cc2)o1 | -2.2 | -17% | 3.7 | -24% | -6% | -3.8%[38.3 µM] | 1%
CC1(c2ccccc2)NC(=O)N(CC(=O)N(CC(=O)Nc2ccccc2C(F)(F)F)Cc2ccco2)C1=O (stereo not drawn) | -1.7 | 3% | / | -2.2% | / | 3.6% | -10%
O=C(NCc1ccccc1)c1csc2c1CCCCC2 | -3.1 | 0% | 0.5 | -0.1% | 22% | 1.4% | 1%
CS(=O)(=O)c1ccc(Cl)c(NC(=O)COC(=O)CCN=C2NS(=O)(=O)c3ccccc32)c1 | -3.2 | -1% | / | 0.2% | / | 0.7% | 17%

Other compounds
SMILES | D2 agonist | gsp agonist | Menin MLL FP FL | ClpP mod | Sfp PPTase inh | PINK1 expr mod | gsp antagonist
Cc1nc2nc(-c3cccnc3)[nH]n2c(=O)c1Cc1ccccc1 | -0.1 | -1% | 2.1 | 3.3% | 13% | 17%[38.3 µM] | -16%
Cc1cc(C)c([N+](=O)[O-])cc1-c1ccc(/C=N/NC(=O)c2nonc2N)o1 | -2.6 | 27% | ? | 0.6% | -9% | 1.1% | ?
C=CCSc1nnc(Cn2c(=O)sc3ccccc32)n1C | -0.4 | -49%[inhibitor] | -0.8 | -6.6% | 11% | 1.8% | 6%
COc1ccccc1C(=O)N/C(=C\c1ccccc1)C(=O)NC(C)C(=O)O (stereo not drawn) | -2.2 | -36%[inhibitor] | -1.7 | / | 18% | -0.7% | 9%
CN(C)C(CNC(=O)NC1CCCCC1)c1cccnc1 (stereo not drawn) | -3.2 | -52%[inhibitor] | 2.8 | -1.9% | 18% | -1.3% | -8%
CCc1nn(CC(=O)NCCCc2ccccc2)c(=O)c2cc3cc(F)ccc3n12 | -1.9 | 14% | -0.8 | -19% | -19% | 6.8%&1.0% | -4%
O=C(CCC1CCCN(C(=O)CCC(F)(F)F)C1)NCc1ccc(F)c(F)c1 (stereo not drawn) | 6.5 | -10%[15.4 µM] | -1.0 | / | -6% | 0.4% | 3%
COc1ccc2c(c1OC)C(=O)OC2Nc1ccccc1S(=O)(=O)C(F)F (stereo not drawn) | 0.6 | 16% | -1.7 | ? | -18% | 6.3%[38.3 µM] | 11%
Cc1cccc(NC(=O)C2(c3ccccc3)CCOCC2)c1 | -2.9 | -1%[15.4 µM] | -3.3 | / | -6% | 0.1% | -6%
CCOC(=O)C1(Cc2cccc(Cl)c2)CCCN(CCO)C1 (stereo not drawn) | -0.7 | ? | 8.1 | / | -7% | 0.7% | 4%
COc1ccc(CCNC(=O)COc2coc(CN3c4ccccc4CC3C)cc2=O)cc1OC (stereo not drawn) | -0.2 | -11% | / | -1.7% | / | -1.0% | -13%
O=C(NCCCn1ccnc1)c1cc(C(=O)C2CCCCC2)c[nH]1 | -1.0 | 6%[15.4 µM] | 4.6 | / | 25% | 0.6% | 9%
O=c1[nH]c(SCc2ccccc2F)nc2ccccc12 | -0.8 | 1%[15.4 µM] | 2.3 | / | 6% | 13% | -2%
CCCCNC(=O)CNC(=S)N(Cc1ccccc1F)C1CCCCC1 | -3.3 | 8%[15.4 µM] | 1.6 | / | 15% | 1.2% | -6%
C[C@H](NC(=O)c1cc2cc(Cl)ccc2n1C)C(=O)N[C@@H](C(=O)O)c1ccccc1 | -3.9 | 25% | -6.6 | / | 9% | 1.9% | 7%
CCN(CC(=O)Nc1ccc2c(c1)OCCO2)C(=O)c1ccc(C(F)(F)F)cc1 | -2.2 | 2% | / | -0.9% | / | -0.7% | -8%
COc1ccc(CN2C(=O)C(CC(=O)NC3CCCC3)CC(C(=O)N3CCOCC3)=C2C)cc1 (stereo not drawn) | -6.0 | / | / | -0.5% | / | 0.1% | /
O=C(NNc1ccccn1)C(=O)NNS(=O)(=O)c1ccc(F)cc1 | -0.7 | 0%[15.4 µM] | -1.6 | / | 6% | 0.9% | 10%
COc1ccc(OC)c(CN2CCN(C(=O)c3ccc(S(=O)(=O)Nc4ccccc4F)cc3)CC2)c1 | 1.0 | 34% | / | -2.2% | / | -1.2% | -25%
COc1ccc(Nc2nnc(Cc3ccncc3)c3ccccc23)c(OC)c1 | -2.1 | -9% | -17 | -0.5% | 1% | -0.2% | -10%
CCOC(=O)c1ccc(N2C(=O)CC(Sc3nc(C)cc(C)n3)C2=O)cc1 (stereo not drawn) | -0.3 | -4% | -1.1 | 0.3% | 14% | -0.4% | 3%
Cc1oc(/N=C/c2ccccc2)c(C#N)c1C | 11 | -23%[15.4 µM] | 6.7 | -1.6% | 6% | -0.8% | 7%
O=C1NCCCCC1NS(=O)(=O)c1ccc(Cl)cc1 (stereo not drawn) | -4.0 | -26% | 7.1 | 0.1% | 7% | 0.7% | 6%
COc1cc(Cl)c(C)cc1NC(=O)c1ccccc1-n1cnnn1 | 3.1 | -4% | / | / | / | 5.1% | -14%
CCOc1ccc(Cc2nnc(SCC(=O)Nc3ccccc3)n(N)c2=O)cc1 | -2.3 | -7%[15.4 µM] | / | / | / | 5.2% | -10%
COC(c1ccccc1)c1nnc(CCC(=O)N2CCN(CCOc3ccccc3)CC2)o1 (stereo not drawn) | 7.0 | 2% | -3.7 | / | 28% | -1.0% | 0%
O=C(Nc1ccc(Br)cc1F)c1ccc2nsnc2c1 | 7.1 | ? | 0.7 | -21% | 8% | 6.9% | ?
COCCn1c(C23CC4CC(CC(C4)C2)C3)n[nH]c1=S | 3.6 | -3% | 9.1 | -2.1% | 32µM* | 0.6% | -13%
COc1ccc(CNC(=O)CCN2C(=O)[C@@H]3Cc4ccccc4CN3C2=O)cc1 | 0.1 | -55%[inhibitor] | / | -1.2% | 9% | -0.6% | 7%
Cc1ccc(S(=O)(=O)N2CCN(C(=O)COC(=O)CCOc3ccc(C(C)(C)C)cc3)CC2)cc1 | -2.7 | -19%[15.4 µM] | / | / | / | 3.0% | -10%
